Bioassay records from PubChem BioAssay.
2A StopGo: FMDV 2A StopGo reporter, luciferase signal. human cells with a luciferase reporter of 2A StopGo recoding; control for the full effect not named in the record. Potency, µM (top dose mostly 57.9 µM), for inactives: at the top dose signal change, negative = less light. 410,000 compounds, 1.2% hits; active = well fitted falling curve with a large enough effect; inconclusive = small, poorly fitted or top-dose-only effect; inactive = no such curve, though single readings can be large or run the other way; tested in HEK293T cells; note: % is set by controls: 0 for no effect and ±100 for the full control effect; nearly all actives have a fitted effect of over 45% in size; luciferase light after 4 h
Lassa entry inh: blocks Lassa virus binding to or entry into cells; Lassa virus pseudotype entry inhibition, cell reporter; control for the full effect not named in the record; Potency, µM (top dose mostly 37.9 µM), inactives show at the top dose activity change, negative = inhibition, usual class: inhibitors; 300,000 compounds, 1.2% hits; active means well fitted inhibition curve with a large enough effect; inconclusive means small, poorly fitted or top-dose-only effect, or effect the other way; inactive means flat fitted curve, though single readings scatter; tested in HEK293 cells; note: % is set by controls: 0 for no effect and ±100 for the full control effect; nearly all actives have a fitted effect of over 50% in size; luciferase read-out
Cruzain inh noDet: cruzain (T. cruzi) inhibition without detergent; 200,000 compounds, 2.3% hits; Potency, µM, for inactives: max response, negative = inhibition, hits mostly inhibitors; purified cruzain, Z-FR-AMC fluorescence, no detergent; AID 1476; P25779;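 note: plate controls were enzyme without inhibitor for no effect and buffer without enzyme for full effect; nearly all actives have a fitted effect of over 40% in size; top concentration of the series not given in the record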
Target sequence (P25779 123-467 limits assumed): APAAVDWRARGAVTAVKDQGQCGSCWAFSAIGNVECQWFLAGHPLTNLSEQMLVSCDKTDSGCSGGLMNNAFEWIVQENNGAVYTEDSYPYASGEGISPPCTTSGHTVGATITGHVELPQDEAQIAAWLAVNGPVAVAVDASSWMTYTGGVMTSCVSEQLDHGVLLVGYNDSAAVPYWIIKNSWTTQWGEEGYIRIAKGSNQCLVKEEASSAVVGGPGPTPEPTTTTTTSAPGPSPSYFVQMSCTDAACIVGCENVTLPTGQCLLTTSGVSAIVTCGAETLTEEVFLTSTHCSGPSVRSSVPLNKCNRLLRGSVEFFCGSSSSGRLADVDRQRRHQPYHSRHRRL
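Detergent-free condition (0.00005% Triton X-100) in acetate buffer pH 5.5 with DTT. 1.5 nM enzyme and compound were pre-mixed 15 min, then 2 uM Z-FR-AMC substrate added; reaction progress from fluorescence change between first and third reads (60 s).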
Cruzain Triton: cruzain (T. cruzi) inhibition with detergent; P25779; purified cruzain, Z-FR-AMC fluorescence, 0.01% Triton; Potency, µM, without a hit: max response, negative = inhibition, hits mostly inhibitors; 200,000 compounds, 0.43% hits; AID 1478;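 note: plate controls were neutral wells for no effect and buffer without enzyme for full effect; nearly all actives have a fitted effect of over 40% in size; top concentration of the series not given in the record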
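Purified cruzain (1.5 nM final) was preincubated with compounds for 15 min at room temperature in 100 mM sodium acetate pH 5.5, 5 mM DTT, 0.01% Triton X-100. Reaction started with 2 uM Z-FR-AMC; AMC fluorescence change over 60 s gave activity.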
MARV entry inh: inhibitors of Marburg virus binding or cell entry; Marburg virus pseudotyped entry inhibition, cell reporter; control for the full effect not named in the record; about a third of the inactives were read at about 46 µM; Potency, µM (doses to about 37.8 µM), inactives show at the highest dose activity change, negative = inhibition, hits mostly inhibitors; 300,000 compounds, 1.8% hits; active = well fitted inhibition curve with a large enough effect; inconclusive = small, poorly fitted or top-dose-only effect, or effect the other way; inactive = flat fitted curve, though single readings scatter; tested in HEK293 cells; about a fifth of its hits are not listed in these tables; note: % is set by controls: 0 for no effect and ±100 for the full control effect; luciferase read-out
SARS PLpro yeast: inhibitors of SARS-CoV papain-like protease in yeast. S. cerevisiae expressing SARS-CoV PLpro, growth rescue; control for the full effect not named in the record. Potency, µM (titrated, usually from 32.9 µM), for inactives: at the top dose activity, positive = growth rescue. 330,000 compounds, 0.19% hits. AID 485353; active means well fitted rising curve with a large enough effect; inconclusive means small, poorly fitted or top-dose-only effect; inactive means no such curve, though single readings can be large or run the other way; note: 0% is about no effect; nearly all actives have a fitted effect of over 55% in size; growth read by luminescence after 48 h
NS1 inh: blocks influenza NS1 protein function. 270,000 compounds, 0.4% hits. AID 2326. Potency, µM (top dose mostly 46.1 µM), inactives show at the top dose activity, positive = more growth. S. cerevisiae slowed by influenza A NS1, growth recovery by OD600; active means well fitted rising curve with a large enough effect; inconclusive means small, poorly fitted or top-dose-only effect; inactive means no such curve, though single readings can be large or run the other way; note: nearly all actives have a fitted effect of over 50% in size
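Growth recovery, yeast-based: influenza A NS1 expressed in S. cerevisiae causes slow growth, and suppressors are detected by OD600. The parent strain without NS1 is used as positive control.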
RE007 growth inh: less growth of the S. pombe RE007 Vpr strain; S. pombe RE007 Vpr strain, BacTiter-Glo ATP luminescence, 24 h; control for the full effect not named in the record; Potency, µM (highest dose often 92.2 µM), for inactives: at the top dose activity change, negative = less growth; 360,000 compounds, 0.21% hits; AID 651644; active = well fitted falling curve with a large enough effect; inconclusive = small, poorly fitted or top-dose-only effect; inactive = no such curve, though single readings can be large or run the other way;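 note: % is set by controls: 0 for no effect and ±100 for the full control effect; nearly all actives have a fitted effect of over 50% in size; the assay follows cell death caused by Vpr and the record does not say whether a fall means rescue or toxicity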
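Fission yeast RE007 carrying one integrated HIV-1 vpr copy, seeded at OD 0.01 in PMG+AL medium with 23 nL pinned compound. Grown 24 h at 30 degrees; viability read by BacTiter-Glo luminescence after 5 min.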
An asterisk follows results filed as active; ? = inconclusive; . = no result given; & = joins results of further samples; [ ] = remark or other dose. Unless noted, calls come from the whole dose curve; as a rule, active = well fitted curve in the direction sought with a large enough effect; inconclusive = small, poorly fitted or top-dose-only effect, or another doubt; inactive = no such curve, though single readings can be large; an effect the other way counts as inactive or inconclusive. Potency is the fitted concentration of half-maximal effect.

SMILES	2A StopGo	Lassa entry inh	Cruzain inh noDet	Cruzain Triton	MARV entry inh	SARS PLpro yeast	NS1 inh	RE007 growth inh
Cc1cc(C)cc(Oc2nn[nH]n2)c1	14%	?	14%	1.0%	1%	3%	6%	2%
CCOc1ncccc1C(=O)NNC(=O)c1cccc(S(=O)(=O)Nc2ccc(OC)cc2)c1	-15%	-19%	.	.	-30%	3%	4%	-5%
CC(=O)c1nn(-c2ccc(C(F)(F)F)cc2)c(=O)[nH]c1=O	-14%	14%[46.1 µM]	.	.	1%[46.1 µM]	1%	-31%	3%
Cc1ccc(NC(=O)CO/N=C/c2ccccc2C)c(C)c1	0%	-7%[46.1 µM]	.	.	?	-6%	-6%	3%
CCN(CC)S(=O)(=O)c1ccc(NC(=O)c2nn(C)c3c2CSc2ccccc2-3)cc1	-17%	?	4%	-4.1%	4%[46.1 µM]	.	.	.
CC(=O)NC(Cc1c[nH]c2ccccc12)C(=O)N1CCc2ccccc2C1 (configuration not stated)	1%	-29%	-4%	-2.3%	29%	2%	-1%	-5%
Fc1ccc(Nc2ccc(-c3ccc(F)cc3)nn2)cc1	32%[activator]	.	.	.	.	-1%	-6%	-6%
Cn1c(=O)[nH]c(=O)c2c1nc(N1CCNCC1)n2Cc1ccccc1	-4%	?	.	.	?	-16%	-35%	-8%
O=c1[nH]c(C2CCN(S(=O)(=O)c3ccccc3)CC2)nc2c1nnn2Cc1ccccc1	0%	?	.	.	13%[46.1 µM]	1%	6%	0%
CCn1ccc(C(=O)Oc2ccc(Cl)cc2)n1	51%[activator]	?	-1%	-0.5%	-4%[46.1 µM]	6%	-9%	-29%
COc1ccc(CC(=O)N2CCc3cc(OC)c(OC)cc3C2COc2cc(C)cc(C)c2)cc1OC (configuration not stated)	-2%	?	?	-0.7%	.	.	.	.
Cc1occc1-c1n[nH]c(=S)n1-c1ccccc1	-15%	3%	5%	-2.7%	?	3%	9%	-1%
CCOc1ccc(NC(=O)CN2CCN(CC(=O)Nc3ccc(OC)cc3OC)CC2)cc1	-15%	-25%[46.1 µM]	.	.	-29%[46.1 µM]	-1%	-6%	4%
CCN(C(=O)CSc1nc(N)cc(=O)[nH]1)c1c(N)n(Cc2ccccc2)c(=O)[nH]c1=O	-20%	-1%	.	.	4%	-1%	.	12%
CCN(CC(O)COc1ccc(OCC(O)CN(CC)C2CCCCC2)cc1)C1CCCCC1 (configuration not stated)	-7%	?	.	.	?	.	.	1%
CC(C(=O)Nc1ccc(C#N)cc1)N1CCN(C(=O)C2CC2)CC1 (configuration not stated)	-16%	8%	.	.	2%	17%	.	-4%
O=C(COC(=O)c1ccccc1NS(=O)(=O)c1ccc(Cl)cc1)NCc1ccccc1	-18%	-30%	1%	-7.0%	-2%	?	-15%	-4%
O=C(NC(c1ccccc1)c1cc(Cl)c2cccnc2c1O)c1cccnc1 (configuration not stated)	.	-14%	3%	5.1%	-23%	1.8µM*	9%	.
Cc1cccc(CNC(=O)c2ccc(NC(=O)N3CCSc4ncccc43)cc2)c1	-10%	-2%[46.1 µM]	-4%	-5.8%	.	.	.	.
Cc1ccc2c(C)c(C(=O)N3CCCC(C(N)=O)C3)oc2c1C (configuration not stated)	33%[activator]	.	.	.	.	-8%	3%	14%
COc1ccc(C(=O)N(Cc2ccco2)Cc2cccs2)c(O)c1	84%[activator]	-9%	-1%	-2.1%	-4%	-36%	-54%	-8%
CC(C)N(C(=O)Cn1cc(SCC(=O)N2CCCC2)c2ccccc21)C(C)C	5%	.	.	.	-1%[46.1 µM]	4%	.	-3%
CCCCN(Cc1cc2cc(C)ccc2[nH]c1=O)C(=O)c1cccc(Cl)c1	-20%	-11%[46.1 µM]	-1%	-1.2%	21%[46.1 µM]	.	.	.
CC(=O)Nc1ccc(S(=O)(=O)Oc2cccc(/C=N/N=C3/NC(=O)C(CC(=O)O)S3)c2)cc1 (configuration not stated)	-6%	2%	.	.	6%[46.1 µM]	1%	3%	13%
COc1ccc(CCN=C(N)NS(=O)(=O)c2ccc(OC)c(OC)c2)cc1OC	-15%	6%	.	.	-3%	0%	0%	4%
SMILES	2A StopGo	Lassa entry inh	Cruzain inh noDet	Cruzain Triton	MARV entry inh	SARS PLpro yeast	NS1 inh	RE007 growth inh
CC(C)c1ccc(C2N=C(N)Nc3nc4ccccc4n32)cc1 (configuration not stated)	-16%	-14%[46.1 µM]	3%	1.2%	-10%[46.1 µM]	.	.	.
CCN(c1ccccc1)c1cc(C)nc2ncnn12	-21%	.	2%	-2.9%	.	13%	1%	7%
CC(C)c1ccc(NC(=O)Cn2c(=O)oc3cccnc32)cc1	21%	-5%	.	.	?	0%	-1%	20%
c1cn(CCCNc2ncnc3sc4c(c23)CCC4)cn1	0%	-1%	-2%	-2.9%	-17%	8%	4%	12%
O=c1cccc2n1C[C@@H]1C[C@@H]2CN(CC(O)c2ccc([N+](=O)[O-])cc2)C1 (some centres not stated)	-9%	.	.	.	.	0%	2%	12%
Cc1csc2nc(CNC(=O)c3cccc(C(F)(F)F)c3)cn12	-2%	4%	-7%	-3.2%	-2%	4%	4%	-14%
O=C(CNC1CCCC1)Nc1cc(Cl)ccc1[N+](=O)[O-]	21%	15%	.	.	9%[46.1 µM]	0%	2%	-16%
COc1ccc(CCNC(=O)c2nnn(CC(=O)Nc3cccc(F)c3)c2N)cc1OC	-18%	-24%	.	.	?	0%	.	-3%
CCC(=O)N(Cc1cc2cc(OC)ccc2[nH]c1=O)c1ccccc1C	-15%	?	0%	3.3%	-18%[46.1 µM]	5%	-9%	27%
Cc1cc(C(=O)OCC(=O)Nc2ccc(F)cc2)c(C)n1C1CC1	1%	-19%	.	.	-24%	0%	.	-21%
CCCCC1=CC2=CC(=O)C(C)(OC(=O)CCc3ccccc3)C(=O)C2=CO1 (configuration not stated)	-16%	.	-4%	1.6%	-25%&-25%[14.2 µM]	4%	?	6%
CCOc1ccc(OCCOCCOc2c(Cl)cccc2Cl)cc1	-7%	1%	.	.	2%	.	.	-8%
CCOc1ccc(C2CC(=O)NC(SCC(=O)OC)=C2C#N)cc1 (configuration not stated)	-28%	.	-1%	-1.3%	.	-3%	-2%	-3%
CC(C)(C)c1ccc(-c2nc3cc(N)ccc3o2)cc1	?	?	.	.	?	-13%	-1%	15%
COc1ccc(C(=O)COC(=O)c2ccc(Cl)nc2)c(OC)c1	13%	?	.	.	0%	-4%	.	-5%
COc1cc(/C=C2\SC(N3CCCCC3)=NC2=O)cc(OC)c1OC	-12%	-29%	.	.	8%[46.1 µM]	1%	-2%	-6%
COc1ccc(Cc2nnc(SCC(=O)c3ccccc3)o2)cc1	4%	?	-2%	-4.0%	-7%	-2%	-15%	14%
N#C/C(=C\C=C\c1ccccc1[N+](=O)[O-])c1nc(-c2ccc3c(c2)OCO3)cs1	.	-1%	20µM*	1.6%	-6%	6%	16%	-2%
C=C(C)Cc1c(C)nc(-c2ccccc2)[nH]c1=O	5%	8%	-4%	0.4%	0%	14%	-8%	-18%
COc1ccc(C(=O)OCCNC(=O)c2c(Cl)nc3ccccn23)cc1	?	-6%	8%	-0.3%	-6%	-16%	-61%	-9%
Cc1ccc(S(=O)(=O)NC(CC(C)C)C(=O)Oc2ccc3c4c(c(=O)oc3c2)CCC4)cc1 (configuration not stated)	.	-4%	3%	-6.4%	17%	-9%	?	0%
CCc1ccc2c(c1)C1(SC(NC(C)=O)=NN1C(C)=O)C(=O)N2C(C)C (configuration not stated)	.	14%	?	3.1%	-3%	-2%	-1%	4%
Cn1c(N)c(C(=O)COC(=O)C2(c3ccc(Cl)cc3)CCCC2)c(=O)n(C)c1=O	-30%	-5%	?	-7.5%	?	1%	-3%	?
O=C1/C(=C/c2ccco2)SC(=S)N1CCC(=O)N1CCCCC1CCO (configuration not stated)	0%	.	.	.	.	15%	17%	-10%
Cc1nc(NNC(=O)c2ccc([N+](=O)[O-])cc2)cc(-c2ccccc2)n1	-22%	-3%	9%	6.8%	7%	19%	-5%	-13%
SMILES	2A StopGo	Lassa entry inh	Cruzain inh noDet	Cruzain Triton	MARV entry inh	SARS PLpro yeast	NS1 inh	RE007 growth inh
CCCCOc1ccc(CSc2nnc(C)n2N)cc1[N+](=O)[O-]	4%	-2%	.	.	-13%[46.1 µM]	0%	4%	-18%
COc1ccc(OC)c(Nc2nc3nonc3nc2N2CCCC(C)C2)c1 (configuration not stated)	-15%	1%	-13%	-1.4%	3%[46.1 µM]	-1%	-1%	0%
CCN(CC(=O)Nc1ccc(NC(C)=O)cc1)C(=O)c1ccc2c(c1)S(=O)(=O)N=C1CCCCCN12	-10%	?	.	.	40%	2%	.	12%
c1ccc(-c2nc3c4ccccc4ccn3c2CN2CCCCC2)cc1	-9%	9%[46.1 µM]	.	.	?	0%	-5%	-9%
COc1ccc(NC(=O)C2CC(=O)n3ncnc3N2)cc1 (configuration not stated)	1%	1%	-2%	5.5%	3%	-3%	2%	2%
CC(c1ccco1)N(C(=O)COc1ccccc1[N+](=O)[O-])c1ccccn1 (configuration not stated)	25%	1%	-13%	-3.5%	?	.	-2%	-4%
COCCN1Cc2cccc(C(=O)Nc3cccc(C)c3C)c2C1=O	9%	0%	7%	5.6%	0%	3%	-59%	8%
CCOC(=O)c1[nH]c2ccc(OC)cc2c1NS(=O)(=O)c1ccc(Cl)s1	-14%	3%	-7%	-7.2%	?	6%	14%	-2%
O=C(NN1CCOCC1)C12CC3CC(CC(C3)C1)C2	-17%	-1%	-7%	-0.8%	24%	7%	4%	-13%
COc1ccc2cc(C(N)=O)/c(=N\NC(=O)c3ccccc3)oc2c1	10%	.	.	.	.	1%	-6%	15%
O=C(Nc1nnc(Cc2ccc(Cl)cc2)s1)c1cccnc1	10%	.	.	.	.	-1%	-3%	-1%
O=C(c1ccc(S(=O)(=O)N2CCCCCC2)cc1)N1CCN(c2ccccn2)CC1	-16%	-13%	-1%	0.5%	4%	-3%	-31%	-10%
CCc1cc(=O)oc2c(C)c(OC(C)C(=O)NCCCn3ccnc3)ccc12 (configuration not stated)	-2%	.	.	.	.	-10%	3%	0%
